Menin MLL FP FL = qHTS Assay for Inhibitors Targeting the Menin-MLL Interaction in MLL Related Leukemias: Competition With Fluorescein Labeled MLL-derived Peptide. AID 1766, 2009. 290,000 tested, under 10 active. FP activity change, % at 61.4 µM. Fluorescence polarization, fluorescein-MLL peptide displacement from menin; inconclusive = falling polarisation curve, or a change in total fluorescence; inactive = total fluorescence flat and polarisation flat or rising; no compound was filed as active; the % refers to the polarisation; negative = inhibition;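 further: % of control where 0% means no effect; inhibitors lower the polarisation; unlabelled MLL peptide was the positive control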
Sfp inh = qHTS Assay for Inhibitors of Bacillus subtilis Sfp phosphopantetheinyl transferase (PPTase); 4'-phosphopantetheinyl transferase ffp (Bacillus subtilis), Q9F4F7; 310,000 tested, 3.5% active; AID 1490, 2009; Potency, µM, inactives show max response, negative = inhibition, usual class: inhibitors; Biochemical Sfp PPTase activity, qHTS; active means well fitted inhibition curve with a large enough effect; inconclusive means small, poorly fitted or top-dose-only effect, or another doubt; inactive means no such curve, though single readings can be large or run the other way;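 further: the enzyme is Sfp with the accession as filed and its product quenches rhodamine fluorescence; potency means the concentration at half of the fitted maximal effect; 0% = enzyme reaction without inhibitor and -100% = no enzyme wells; top concentration of the series not given in the record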
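Reaction rates are the 30-min fluorescence difference (ex 525, em 598 nm) in wells containing 15 nM Sfp, 5 uM rhodamine-CoA and 12.5 uM BHQ-2-YbbR at pH 7.6 with 10 mM MgCl2.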
D2 PAM = Beta-Arrestin HTS for Positive Allosteric Modulators of the Human D2 Dopamine Receptor: Potentiators; potentiation, % (test concentration not listed); DiscoveRx D2 beta-arrestin cells, luminescence, 90 min; 100% = 57 uM dopamine signal; D(2) dopamine receptor (Homo sapiens), P14416; 360,000 tested, 0.23% active; active = potentiation of 50% or more; inconclusive = 30% to 50%; inactive = 30% or less;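 further: compound concentration not given in the record; tested on top of an EC20 dose of dopamine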
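PathHunter beta-arrestin assay in DiscoveRx D2 cells. Compounds were added with an EC20 of dopamine (50 nM final) for 90 min at 37 deg C. Luminescence was read 1 h after detection reagent, with 57 uM dopamine as the EC100 control.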
TRPV1 PAM = HTS Assay for Compounds that Act as Potentiators of the Vanilloid Receptor 1. TRPV1-expressing cells, Fluo-8 calcium influx, capsaicin EC20 potentiation; host cell line not named in the record; control for the full effect not named in the record. Transient receptor potential cation channel subfamily V member 1 (Homo sapiens), Q8NER1. potentiation, % at 8.33 µM. 320,000 tested, 0.02% active; active means potentiation above 80%; inconclusive means 30% to 80%; inactive means below 30%; further: 0% is about no effect
Target sequence (Q8NER1 whole entry, looked up): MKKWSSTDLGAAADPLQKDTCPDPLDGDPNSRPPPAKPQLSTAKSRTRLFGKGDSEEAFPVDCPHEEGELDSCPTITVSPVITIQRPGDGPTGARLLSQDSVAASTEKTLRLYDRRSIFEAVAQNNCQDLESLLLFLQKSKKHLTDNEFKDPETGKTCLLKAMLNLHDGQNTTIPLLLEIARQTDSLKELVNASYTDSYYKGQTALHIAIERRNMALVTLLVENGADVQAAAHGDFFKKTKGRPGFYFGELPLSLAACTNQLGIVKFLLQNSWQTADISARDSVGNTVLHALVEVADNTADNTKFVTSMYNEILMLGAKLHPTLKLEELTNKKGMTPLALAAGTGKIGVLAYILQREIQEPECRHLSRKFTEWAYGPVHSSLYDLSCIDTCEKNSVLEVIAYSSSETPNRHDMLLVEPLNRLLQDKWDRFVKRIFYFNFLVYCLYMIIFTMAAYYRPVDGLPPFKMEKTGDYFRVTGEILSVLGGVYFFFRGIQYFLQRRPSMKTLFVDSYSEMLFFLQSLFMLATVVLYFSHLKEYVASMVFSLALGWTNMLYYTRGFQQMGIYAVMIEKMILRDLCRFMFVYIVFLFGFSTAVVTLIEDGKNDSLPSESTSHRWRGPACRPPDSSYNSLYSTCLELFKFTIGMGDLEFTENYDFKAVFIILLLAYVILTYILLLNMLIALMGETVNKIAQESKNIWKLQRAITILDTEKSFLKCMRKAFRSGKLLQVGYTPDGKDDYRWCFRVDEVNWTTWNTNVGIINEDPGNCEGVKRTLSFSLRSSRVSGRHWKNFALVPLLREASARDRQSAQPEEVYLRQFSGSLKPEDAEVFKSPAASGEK
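Cells expressing TRPV1 were dye-loaded with Fluo-8 and read kinetically: 10 s baseline, 3 min after compound (agonist portion), then 2 min after EC20 capsaicin (allosteric enhancer portion). Calcium-bound dye fluorescence at 480/520 nm.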
ClpP mod = qHTS Assay for Activators of ClpP; Potency, µM (series often up to 57.5 µM), inactives show top-dose activity change, negative = active; 340,000 tested, 1.9% active; ATP-dependent Clp protease proteolytic subunit (Bacillus subtilis (strain 168)), P80244; AID 651965, 2013; purified B. subtilis ClpP, FRET peptide cleavage, 20 min; active = well fitted falling curve with a large enough effect; inconclusive = small, poorly fitted or top-dose-only effect; inactive = no such curve, though single readings can be large or run the other way; further: potency means the concentration at half of the fitted maximal effect; the source files actives as falling curves though it sought activators and does not explain the sign; nearly all actives have a fitted effect of over 65% in size; many hits overshoot -100%
Target sequence (P80244 whole entry, looked up): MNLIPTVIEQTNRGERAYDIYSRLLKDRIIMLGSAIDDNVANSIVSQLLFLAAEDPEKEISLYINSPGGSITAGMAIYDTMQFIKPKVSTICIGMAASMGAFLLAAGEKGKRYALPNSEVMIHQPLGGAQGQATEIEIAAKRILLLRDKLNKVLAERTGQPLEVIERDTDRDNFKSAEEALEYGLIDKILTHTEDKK
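Buffer: 100 mM Tris/HCl pH8, 100 mM KCl, 0.05% low protease BSA, 2.5% glycerol, 0.01% Tween-20. ClpP 10 microg/mL final; 20 min RT; delta FRET normalized to ADEP and DMSO controls.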
gsp antagonist = qHTS for Antagonists of gsp, the Etiologic Mutation Responsible for Fibrous Dysplasia/McCune-Albright Syndrome: qHTS; Potency, µM (top dose mostly 76.9 µM), inactives show at the highest dose activity change, negative = inhibition, most hits filed as inhibitors; gsp-mutant cells, cAMP HTRF, 30 min; control for the full effect not named in the record; 340,000 tested, 0.4% active; active = falling curve of any shape with a large fitted effect; inconclusive = falling curve, mostly with a smaller effect; inactive = flat or rising curve; cell line not stated here;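 further: intracellular cAMP measured with PDE inhibitor Ro 20-1724 present during compound exposure; potency means the concentration at half of the fitted maximal effect; on the % scale 0 is the no-effect control and ±100 the full control effect; nearly all actives have a fitted effect of over 65% in size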
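G418-selected cells were plated in DMEM/10% FBS for 16-24 h at 37C, then treated with compounds plus the PDE inhibitor […] (300 uM solution added) for 30 min at 37C. Intracellular cAMP was measured by HTRF after 30 min lysis at room temperature.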
gsp ag = qHTS for Agonist of gsp, the Etiologic Mutation Responsible for Fibrous Dysplasia/McCune-Albright Syndrome: qHTS; gsp mutant cells, cAMP HTRF, 30 min; control for the full effect not named in the record; Potency, µM (highest dose often 76.9 µM), for the others: at the top dose activation (cAMP increase), usual class: activators; 340,000 tested, 0.13% active; AID 624287, 2012; active = well fitted activation curve with a large enough effect; inconclusive = small, poorly fitted or top-dose-only effect, or another doubt; inactive = no such curve, though single readings can be large or run the other way; cell line not stated here;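 further: phosphodiesterase inhibitor Ro 20-1724 added with compounds to block cAMP breakdown; potency means the concentration at half of the fitted maximal effect; nearly all actives have a fitted effect of over 60% in size; about a fifth of the inactives were tested at one dose only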
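Cells stably selected in G418 were plated at 2000/well, grown 16-24 hr, then given compounds in DMSO with the PDE inhibitor […] (300 uM solution added) for 30 min at 37C; cAMP was read by HTRF.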
* = called active by the depositor; ? = inconclusive; . = no result given; [ ] = another dose, or the depositor's remark. The order is random; 5.1% or so of the library scored in one or more.

Results follow in this order: Menin MLL FP FL | Sfp inh | D2 PAM | TRPV1 PAM | ClpP mod | gsp antagonist | gsp ag
CCN(CC)S(=O)(=O)c1ccc(OC)c(NC(=S)Nc2cccc(C)c2C)c1
 : 1.4 | 22% | -18 | 9 | -0.1% | -13% | -140%[inhibitor]
Cc1ccc(S(=O)(=O)N(Cc2ccc(C(F)(F)F)cc2)C(=O)N2CCN(C)CC2)cc1
 : . | . | -4 | -5 | ? | 10% | 2%
Cc1ccsc1/C=N/NC(=O)C(O)c1ccccc1 (stereo not given)
 : -0.6 | 6% | -4 | -2 | 0.9% | -5% | -5%
CCCNC(=O)N1CCC(c2nc3ccccc3s2)CC1
 : -1.9 | 2% | -3 | 8 | -1.2% | -7% | 15%
CC(NC(=O)c1ccc(N2CCCC2=O)cc1)c1ccccc1 (stereo not given)
 : 1.1 | 5% | -10 | 9 | -0.8% | 8% | -36%[inhibitor]
CC(C)c1ccc(NC(=O)COc2nnc(-c3cccs3)c(-c3cccs3)n2)cc1
 : 7.6 | 14% | -3 | 8 | 0.7% | 2% | -24%
CNS(=O)(=O)c1cccc(C(=O)NC2CCCc3ccccc32)c1 (stereo not given)
 : 5.3 | 8% | -1 | 3 | . | -12% | 2%[15.4 µM]
O=CN1CCC(=O)N(Cc2ccccc2)c2ccccc21
 : 4.7 | 9% | 5 | 7 | 1.6% | 5% | -27%
CCc1ccc(-c2nnn(CC(=O)N(C3CCCC3)C3CCS(=O)(=O)C3)n2)cc1 (stereo not given)
 : . | . | -2 | -11 | 1.6% | 2% | -48%[inhibitor]
COc1ccc(CNC(=O)c2c(O)c3cc(OC)c(OC)cc3[nH]c2=O)cc1OC
 : -2.2 | 17% | -10 | 14 | 7.9µM* | 12% | 2%[15.4 µM]
O=C(c1ccc2c(=O)n(CC3CCCO3)c(=S)[nH]c2c1)N1CCN(c2ccccc2)CC1 (stereo not given)
 : -1.8 | -6% | -29 | . | -1.4% | 8% | ?
O=C(O)CCC(=O)N1N=C(c2ccccc2)CC1c1ccc2c(c1)OCO2 (stereo not given)
 : 3.4 | 13% | -5 | 3 | -3.0% | -28% | 19%
CCC1CCCCN1CCN1C(=O)C2C(C(=O)Nc3ccc(OC)cc3)C3C=CC2(O3)C1C(=O)NC1CCCCC1 (stereo not given)
 : 1.7 | 4% | -2 | 2 | . | 9% | 4%
Cc1ccc(-c2nnc(-c3ccncc3)n2-c2ccc(C)cc2)cc1
 : 4.5 | 17% | -13 | -15 | -0.6% | -7% | 8%
COc1ccc(N2CC(C(=O)Nc3ccc(N4CCOCC4)cc3)CC2=O)cc1 (stereo not given)
 : -1.8 | 3% | 18 | -11 | -0.4% | 5% | -37%[inhibitor]
COc1cc(OC)c(C(=O)Nc2ncn[nH]2)cc1OC
 : . | . | 10 | . | -15% | 4% | 16%
COc1cccc(-n2nnc3c(=O)n(CC(=O)N4CCCCC4)cnc32)c1
 : 1.1 | 13% | -1 | -9 | -14% | 7% | ?
CC1(C)CC(=O)C(C2c3ccccc3Oc3ccccc32)C(=O)C1
 : -0.2 | -6% | -3 | 29 | -2.3% | -5% | -45%[inhibitor]
Cc1sc(NC(=O)C2C3CCC(C3)C2C(=O)O)c(C(N)=O)c1-c1ccc(C(C)(C)C)cc1 (stereo not given)
 : 8.2 | -22% | -7 | -11 | -1.1% | -12% | -2%[15.4 µM]
CCN1CCCC(NC(=O)c2scc3c2CCCC3)C1 (stereo not given)
 : -0.8 | 14% | 0 | ? | 0.7% | 9% | 17%
CCC(=O)Nc1nc(C)nc(C)c1C(C)=O
 : -1.0 | 14% | -7 | 1 | -3.0% | 6% | -1%
CC(=O)c1ccc(N2CCN(S(=O)(=O)c3ccc4c(c3)NC(=O)CO4)CC2)cc1
 : . | 6% | -7 | 2 | -20% | 9% | ?
C#CCNC(=O)C1=C[C@@H](C2CCCCC2)[C@H](CCCO)[C@@H](OCC)O1
 : 2.5 | 13% | -2 | 24 | -0.2% | 0% | .
Cc1ccccc1C(=O)N/C(=C/c1ccc(-c2cccnc2Cl)o1)C(=O)NCCCN1CCN(C)CC1
 : 2.1 | 14% | -6 | 11 | ? | 4% | -14%
COc1ccc(NC(=O)c2ccco2)cc1S(=O)(=O)N1CCCCC1
 : . | 4% | -18 | -2 | -5.7% | -3% | -35%[inhibitor]
CCn1c(SCC(=O)Nc2sccc2C(N)=O)nnc1C1CC1
 : . | . | -2 | 8 | -0.7% | 50µM* | 5%
CCOC(=O)CSc1nnc(-c2ccc(Cl)cc2Cl)o1
 : 5.9 | 1% | -4 | -12 | -0.6% | -3% | -2%
Cc1cccc(NC(=O)CCN2CCN(C/C=C/c3ccccc3)CC2)c1
 : -0.4 | 16% | -33 | -9 | -0.7% | 15% | 3%
CC(Oc1cccc(Br)c1)C(=O)NNC(=O)CCNC(=O)c1ccccc1Cl (stereo not given)
 : . | . | -3 | 1 | 0.6% | 3% | -22%
CCOc1nc(-c2ccccc2)ncc1Oc1ccccc1
 : . | . | 0 | . | . | -12% | 6%[15.4 µM]
CC(=O)c1c(C)[nH]c(C(=O)CSc2ncnc3sc(-c4ccccc4)cc23)c1C
 : 8.6 | -7% | 15 | 0 | 7.5% | ? | -28%
CCOc1ccc(NC(=O)CN(c2ccc([N+](=O)[O-])cc2)S(=O)(=O)c2ccccc2)cc1
 : 11 | 15% | -28 | -12 | -9.5% | -18% | ?
O=C(NCc1cccs1)c1cnc2sccn2c1=O
 : 2.9 | 5% | 0 | 8 | ? | 8% | ?
COc1ccc(CCNC(=O)CSc2c[nH]c3ccccc23)cc1OC
 : 0.0 | 12% | 5 | -12 | -0.5% | -6% | -17%
COc1ccc(C(=O)Nc2ccc3ccccc3c2)c(OC)c1
 : 0.0 | -11% | -9 | 0 | 0.3% | -23% | 4%[15.4 µM]
COc1ccc(C(=O)NC(C)c2nnc(SCC(=O)Nc3nc4ccccc4s3)n2C)cc1 (stereo not given)
 : -0.9 | 6% | -5 | -1 | -0.2% | -5% | 7%
CCOC(=O)CNC(=O)CSc1nnc(Cn2cnc3ccccc32)n1C
 : 2.8 | 12% | 12 | 10 | 2.7% | 11% | ?
CCCc1nc2oc3ccccc3c(=O)c2c(=O)n1-c1ccccc1
 : -0.8 | -5% | -4 | -2 | 0.2% | -7% | -4%[15.4 µM]
O=C(c1sc2ccccc2c1Cl)N1CCN(c2ccc(F)cc2)CC1
 : -0.3 | ? | -24 | 3 | -3.6% | -4% | 8%
CCNC(=S)/N=C(/Nc1ccccc1)Nc1nc(C)cc(C)n1
 : 19 | 4.5µM* | -6 | 0 | . | -15% | 8%[15.4 µM]
CCOP(=O)(OCC)C(NC(=O)Nc1ccccc1)c1ccccc1 (stereo not given)
 : 3.8 | 16% | -9 | 1 | -4.2% | 14% | -6%
CC(C)C(c1nnnn1Cc1ccc(F)cc1)N1CCSCC1 (stereo not given)
 : 0.3 | 7% | -3 | -6 | 0.2% | -6% | -12%
CCCN(CC1CC1)C(=S)NC(=O)c1ccc(S(=O)(=O)N2CCOCC2)cc1
 : -3.6 | -13% | -5 | -1 | . | -1% | -25%
CCCSc1nc(-c2ccccc2)cc(C(F)(F)F)c1C#N
 : 1.0 | -12% | 4 | -1 | ? | 12% | -4%
COc1ccc(NC(=O)CSc2nc(N)c(C#N)cc2C#N)cc1
 : 21 | -22% | -13 | 1 | -2.5% | 16% | 24%
Cc1ccc(S(=O)(=O)N(CC(=O)Nc2ccc(C(N)=O)cc2)C(=O)N2CCN(C)CC2)cc1
 : . | . | -3 | 0 | 0.8% | 8% | 1%[15.4 µM]
C=CC[C@H](CC(=O)N(CCO)Cc1ccccc1)C(=O)NC[C@@H](OC(=O)[C@@H](CC=C)Cc1ccc(F)cc1)c1ccccc1
 : . | . | -13 | . | -2.9% | ? | .
O=C(CSc1ccc(-c2cccnc2)nn1)N1CCCC1
 : 0.0 | 30% | 4 | -7 | -0.6% | -5% | 2%[15.4 µM]
CCc1cc[n+](C2=C([O-])c3ccccc3C(=O)/C2=N\S(=O)(=O)c2cccs2)cc1
 : . | 11% | 6 | ? | 1.0% | 21% | -14%[15.4 µM]
O=C(NCc1ccco1)c1c(O)c2cccc3c2n(c1=O)CCC3
 : 2.0 | 18% | -6 | 9 | -10% | -3% | 4%
CCCCc1cc(O)c(CCCC)c(O)c1
 : -0.4 | 9% | 22 | -7 | -0.5% | 3% | 14%
CC12CCC(=O)N1C(C(=O)N1CCN(S(=O)(=O)c3ccc(F)c(F)c3)CC1)CS2 (stereo not given)
 : . | . | -69 | -6 | . | 3% | 41%[15.4 µM]
COc1ccccc1NC(=O)c1nnn(CC(=O)Nc2ccccc2)c1N
 : -2.2 | -12% | -2 | 0 | ? | 2% | 12%
COc1ccc(N=Cc2c(O)cc(C)oc2=O)cc1
 : 4.3 | -6% | 1 | 3 | . | . | -2%[15.4 µM]
C/C(CC(=O)Nc1ccc(Cl)cc1)=N\NC(=O)C(=O)N1CCCCC1
 : -1.2 | 2% | -9 | 13 | -1.8% | 1% | 3%[15.4 µM]
CCCNC(=O)c1csc(Nc2cccc3ccccc23)n1
 : -3.5 | -11% | 3 | 9 | -9.6% | -9% | -10%
Cc1ccc2cc3c(N)c(C(=O)Nc4c(C)[nH]c(=O)[nH]c4=O)sc3nc2c1
 : ? | -6% | 7 | -5 | 16µM* | -10% | 28%
Cc1ccccc1-c1nc2ccccc2c(=O)n1/N=C/c1ccc([N+](=O)[O-])cc1
 : . | . | -6 | . | . | 4% | 0%[15.4 µM]

Source: PubChem BioAssay
